# Source: PubChem (several laboratories)
# RN4220 kill = growth inhibition of S. aureus RN4220, primary screen, OD600. 330,000 tested, 0.33% active. AID 1259311, 2017. 16 h. inhibition, % (concentration not given with the values);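 active = z-score of -3 or lower and OD600 up to 0.18 on both plates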;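 note: plate controls were untreated cells for no effect and reference antibiotic for full effect; stock transfer was 100 nL into about 80 µL; one replicate is shown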
# Sa ugtP lethal = growth inhibition of ugtP-null S. aureus, primary screen, RN4220 ugtP deletion, OD600 | 16 h; some inactives read as strong as hits | growth inhibition, % (concentration not given with the values) | 330,000 tested, 0.54% active | AID 1259309, 2017;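 active = z-score under -3 and OD600 up to 0.15 on both plates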;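 note: plate controls were untreated wells for no effect and antibiotic for full effect; wells of about 80 µL received 100 nL stock; the first replicate is given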
# Mtb hypoxia inh = PubChem AID 1159583. M. tuberculosis hypoxia-regulated fluorescent reporter, fluorescence. fluorescence inhibition, % (no concentration beside the values). 300,000 tested, 0.1% active;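 active = 35 to 45% if threefold the growth effect, above 45% if 1.5-fold the growth effect; inactive = the rest, general growth blockers included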;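 note: wells of about 50 µL received 100 nL stock; 0% = vehicle wells and 100% = reference inhibitor wells; whole bacteria with a GFP reporter of the hypoxia response; strong numbers were not always called active; many hits fall short of the cut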
# BJeLR viability = MLPCN primary cell-based screen for lethality selective to Ras in HRASV12 cells; BJeLR (HRASV12) viability, CellTiter-Glo ATP luminescence, 48 h; reference of the scale not given here; inhibition, % (concentration not given with the values); 300,000 tested, 0.17% active;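 active = replicate mean above 50%; inconclusive = above 50% but judged a plate artefact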;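 note: 50 nL library stock added to about 25 µL; numbers are from one replicate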
# PrP 5UTR inh = inhibition of PrP 5' UTR reporter expression; cell-based PrP 5' UTR mRNA reporter, plate reader; inhibition, % (test concentration not listed); 340,000 tested, 0.35% active; AID 488862, 2010;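 active = every replicate at 50% or more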;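 note: 0 = median of the neutral control wells; tested in H4 reporter cells; numbers are from one replicate; inactives centre near -14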
# Bead autofluor = flagged as autofluorescent in microsphere protease counterscreen; compound autofluorescence counterscreen, microsphere flow cytometry; hits give high values; fluorescence intensity (no concentration beside the values); 360,000 tested, 3.1% active; AID 624483;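 active = at least 3 SD above the mean of all compounds, about 16000 in these data; inconclusive = too few beads counted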;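 note: 100 nL of 1 mM stock went into each well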
# Mtb hypoxia inh growth = recorded beside Mtb hypoxia inh, whose call it bears; growth inhibition, %; measured here: M. tuberculosis growth (absorbance);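 0% = vehicle and 100% = reference antibiotic; read after six days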
# * hit, by the source's call; ? = inconclusive; / = not tested or not shown.
SMILES,RN4220 kill,Sa ugtP lethal,Mtb hypoxia inh,Mtb hypoxia inh growth,BJeLR viability,PrP 5UTR inh,Bead autofluor
COc1ccc(S(=O)(=O)N2CCSC2)cc1C,3.5,9,7,2,0,-10,2452
CCOc1ccc(C(=O)Nc2ccccc2OC(F)F)cc1,3.1,9,-3,4,-3,-27,4332
O=C(NCCNc1ccc([N+](=O)[O-])cc1C(F)(F)F)c1ccc(F)cc1,4.6,-13,14,4,-13,-33,2517
Cc1ccccc1-c1noc(CNC(=O)c2ccco2)n1,-1.1,4,13,-2,8,-9,3566
Cc1ccccc1Nc1nc(N)c2ccccc2n1,5.8,2,4,2,17,-45,3600
O=C(CCC(=O)N1CCN(c2ccccn2)CC1)c1ccc(Cl)s1,-0.2,-1,3,13,/,-14,4472
CCOc1ccccc1OCCCC(=O)Nc1cc(S(=O)(=O)N2CCOCC2)ccc1OC,8.2,-6,2,5,/,-13,4025
CC(=O)C1=C(O)C(=O)N(CCc2c[nH]c3ccccc23)C1c1ccc(O)cc1 (stereo not given),4.1,7,8,18,1,-19,8938
CC1CCC(NC(=O)C(=O)Nc2ccc3c(c2)OCO3)CC1 (stereo not given),-2.2,-2,-1,5,1,-109,5441
O=[N+]([O-])c1cc(S(=O)(=O)Nc2ccc(Cl)cc2)ccc1NN=Cc1ccncc1,-5.4,-9,0,-9,/,/,/
CCc1csc(CCNC(=O)C2CCC(=O)N(CCOC)C2)n1 (stereo not given),2.0,5,7,3,10,5,6121
COc1ccc(NC(=O)CN2CCN(CC(=O)Nc3ccc(F)cc3)CC2)c(OC)c1,1.6,9,-8,-5,0,-15,3055
CCOc1ccccc1C(=O)NCC(=O)NCC(C)(C)N1CCOCC1,6.0,11,3,-3,/,-22,6513
CCC(C)NCCCOc1c(C)cc(C)cc1Br (stereo not given),1.9,-5,9,-5,-12,-16,2467
CS(=O)(=O)NCCSc1nnnn1-c1ccccc1,-0.5,8,/,/,-2,-38,2450
CC(=NO)c1ccc(Oc2cnccn2)cc1,3.6,5,-8,-5,/,/,/
CC(=O)N1CCN(C(=O)COc2ccc(Br)cc2)CC1,23,23,1,-3,-3,-20,2575
N/C(Cc1ccc([N+](=O)[O-])cc1)=N\OC(=O)Cc1ccc(Cl)cc1,/,/,/,/,1,-14,2073
Cc1ccc(C)c(N(CC(=O)NC2CCCCC2)C(=O)c2csnn2)c1,7.0,1,-1,2,-9,-12,6035
CCCCNC(=O)NNC(=O)COc1cc(C)cc(C)c1,3.2,0,5,3,15,-22,2143
CCOc1ccc(-c2nn(-c3ccccc3)cc2/C=C(\C#N)S(=O)(=O)c2ccccc2)cc1C,-5.1,8,/,/,-12,-15,5118
Cc1cc2c(cc1S(=O)(=O)N1CCc3ccccc31)NC(=O)CO2,3.0,-5,7,4,-1,-1,3758
CC(=NNC(=S)Nc1ccc(C)cc1)c1cccc(N)c1,2.2,1,3,5,/,/,/
COC(=O)C1=CN(c2ccc(OC)cc2)C=C(C(=O)OC)C1c1ccc(C)c([N+](=O)[O-])c1,5.0,11,11,7,-2,-16,1987
COCCC(=O)N1CCC(Oc2ccc(C(=O)NC3Cc4ccccc4C3)cc2)CC1,1.0,3,17,15,1,-3,5559
CCOc1cc(/C=N/NC(=O)c2ccncc2)ccc1OC(=O)c1ccc([N+](=O)[O-])cc1,/,/,/,/,4,-18,2456
COc1ccc(CC(=O)OCC(=O)Nc2c(C)n(C)n(-c3ccccc3)c2=O)cc1OC,2.0,4,2,8,/,-10,8761
CC(C)CC(NC(=O)COc1ccccc1)C(=O)O (stereo not given),4.9,3,3,4,-3,-5,2327
CC(Oc1ccccc1)C(=O)N1CCC2(CC1)Oc1ccc(F)cc1C(=O)C21CC(c2ccccc2)=NO1 (stereo not given),5.2,5,8,7,3,-15,4029
Cn1cc(S(=O)(=O)NCc2ccc3c(c2)OCO3)c(C(F)(F)F)n1,5.6,9,3,4,4,-28,5151
CC(C)Nc1nc(N(c2ccccc2)c2ccccc2)nc(-n2ccnc2)n1,6.0,1,/,/,/,-7,4722
Cc1cccc(NC(=S)NNC(=S)NC2CCCCC2)c1C,0.6,3,16,13,-1,1,3679
COc1ccc(C(=O)CC2OC(=O)c3c2ccc(OC)c3OC)cc1 (stereo not given),12,2,-2,7,1,4,2460
Cc1ccc([C@@H]2[C@@H]3C(=O)N(c4ccccc4)C(=O)[C@@H]3[C@]3(C)C(=O)N(Cc4ccccn4)CC(=O)N23)o1,-15,-2,10,0,4,-11,2961
Cc1cc(/C=C2\C(=O)NC(=O)N(c3ccc(Br)cc3)C2=O)c(C)n1C,3.4,3,7,1,-10,-18,2729
CCN(Cc1cccs1)C(=O)CN1C(=O)NC2(CCCc3ccccc32)C1=O (stereo not given),0.0,0,2,9,/,10,?
O=C(c1ccco1)N1N=C2CCCCCC2C1(O)C(F)(F)F (stereo not given),7.6,0,14,5,-2,-13,4414
O=C(Cn1cc([N+](=O)[O-])ccc1=O)N1CCCc2ccccc21,1.7,1,-1,-5,4,-7,4953
O=C(c1ccc(N2CCCC2)c([N+](=O)[O-])c1)N1CCN(S(=O)(=O)c2ccc(Cl)cc2)CC1,-0.2,2,4,-1,7,-9,?
Cc1ccccc1CS(=O)(=O)CCC(=O)N1CCN(c2ccc(N3CCOCC3)nn2)CC1,2.3,6,1,2,-11,-19,11198
CCOc1ccc(-c2nn(-c3ccccc3)cc2/C=C2\SC(N)=NC2=O)cc1C,-9.5,-13,/,/,-3,29,2186
CC(=O)N=c1sc2ccccc2n1C,7.1,3,17,5,3,-2,2950
Cn1cnnc1SCc1ccccc1[N+](=O)[O-],3.0,10,-3,0,11,-13,5821
CCC(C(=O)Nc1ccccc1C(=O)N1CCOCC1)N1C(=O)c2ccccc2C1=O (stereo not given),0.2,-3,3,4,-7,-12,10966
Cc1cc(NC(=O)c2cc([N+](=O)[O-])cc([N+](=O)[O-])c2C)no1,5.5,0,11,13,6,-15,4285
S=C(NNc1ccc2ccccc2c1)NC1CCCCC1,1.7,13,10,-2,9,-25,7228
O=C(CSc1cc(Cl)ccc1Cl)NCC(=O)Nc1ccc(F)c(F)c1F,/,/,/,/,-1,-12,2610
CCC(=O)OCCNc1cc(SCCC(=O)OC)c2nonc2c1[N+](=O)[O-],14,14,23,9,0,-2,2310
Nc1cc(=O)[nH]c(SCCNS(=O)(=O)c2ccccc2)n1,-15,-5,6,4,-5,-10,2565
O=C(NCCc1ccc(F)cc1)c1ccc(S(=O)(=O)N2CCCCC2)cc1,1.5,6,0,0,/,-17,5492
CCn1nc(C(=O)OCC(=O)c2c[nH]c3ccccc23)c2ccccc2c1=O,5.1,-11,2,12,-17,-13,10209
CCOC(=O)Cn1cnc2c(cnn2-c2ccc(Cl)cc2)c1=O,1.0,-3,4,5,-2,-4,2421
Cc1ccc[n+](CC2OCc3ccccc3CO2)c1,6.4,3,2,5,-3,-7,1967
S=c1[nH]nc(-c2cc(-c3ccco3)[nH]n2)n1-c1ccccc1,-6.7,-6,11,6,-10,-6,9730
O=C(CSc1nc2ccccc2[nH]1)NCCN1CCCCC1,-0.2,-8,-4,10,1,-17,2954
CCOC(=O)c1ccc(NC(=O)CC2SC3=NCCN3C2=O)cc1 (stereo not given),4.1,3,6,6,2,-17,5738
Cc1sc2ncnc(N=Nc3c(O)[nH]c4ccccc34)c2c1C,/,/,/,/,-7,-85,2251
CCCN(S(=O)(=O)c1ccc(OCC)cc1)S(=O)(=O)c1cccs1,18,19,9,4,-8,-14,3538
Oc1c(N=Nc2ccc(F)cc2)ccc2ccccc12,/,/,/,/,3,-5,3301
COc1ccc(S(=O)(=O)N(CC(=O)NN=Cc2ccc(C(=O)O)cc2)Cc2ccccc2)cc1OC,2.3,2,-11,-4,/,/,/

# In the list so far, 6 contain a Cl atom.
SMILES,RN4220 kill,Sa ugtP lethal,Mtb hypoxia inh,Mtb hypoxia inh growth,BJeLR viability,PrP 5UTR inh,Bead autofluor
O=C(CCC(=O)N1CCN(c2ccccn2)CC1)c1ccc(Cl)s1,-0.2,-1,3,13,/,-14,4472
O=[N+]([O-])c1cc(S(=O)(=O)Nc2ccc(Cl)cc2)ccc1NN=Cc1ccncc1,-5.4,-9,0,-9,/,/,/
N/C(Cc1ccc([N+](=O)[O-])cc1)=N\OC(=O)Cc1ccc(Cl)cc1,/,/,/,/,1,-14,2073
O=C(c1ccc(N2CCCC2)c([N+](=O)[O-])c1)N1CCN(S(=O)(=O)c2ccc(Cl)cc2)CC1,-0.2,2,4,-1,7,-9,?
O=C(CSc1cc(Cl)ccc1Cl)NCC(=O)Nc1ccc(F)c(F)c1F,/,/,/,/,-1,-12,2610
CCOC(=O)Cn1cnc2c(cnn2-c2ccc(Cl)cc2)c1=O,1.0,-3,4,5,-2,-4,2421

# The list goes on.
SMILES,RN4220 kill,Sa ugtP lethal,Mtb hypoxia inh,Mtb hypoxia inh growth,BJeLR viability,PrP 5UTR inh,Bead autofluor
CN(CCc1cnn(C)c1)Cc1nc(Cc2ccccc2)no1,1.2,3,-13,6,3,-37,3868
CC(C)C[C@H](NC(=O)c1nc[nH]c1C(=O)N1CCN(c2ccccc2)CC1)C(=O)OCc1ccccc1,/,/,/,/,0,-18,3054
O=C1CC(N2CCCN(C3CC(=O)N(c4ccc(F)cc4)C3=O)CC2)C(=O)N1c1ccc(F)cc1 (stereo not given),0.0,13,/,/,4,-9,2866
O=C(COC(=O)c1cccs1)c1ccc2c(c1)OCCO2,7.6,9,3,5,-11,10,8214
O=C(CCC(=O)N1CCSc2ccccc21)NCCc1ccccc1,-5.0,2,10,5,-1,-13,4388
COCC(=O)N1CCC(n2nnc3cc(C(F)(F)F)ccc32)CC1,1.9,0,11,9,0,-14,2450
O=C(NC1CCCCCC1)c1ccc(CS(=O)Cc2ccccc2Cl)o1 (stereo not given),1.6,6,6,7,-6,1,5326
Cc1ccc(S(=O)(=O)c2c(N)n(CC3CCOC3)c3nc4ccccc4nc23)cc1 (stereo not given),0.8,-3,15,13,-2,-12,13263
CCN(CC(=O)Nc1ccc(S(=O)(=O)N2CCCC2)cc1)CC(=O)Nc1cccc(OC)c1,4.5,5,7,5,-5,1,5330
O=C(O)c1cc2c(N3CCC(Cc4ccccc4)CC3)ncnc2s1,4.4,-2,9,3,-22,-2,2058
O=C(O)CCCNC(=O)/C(=C\c1ccccc1F)NC(=O)c1ccccc1,/,/,/,/,0,-16,4420
C/C(=N\NC(N)=O)c1c(O)n(C)c(=O)n(C)c1=O,5.6,-2,7,10,7,-22,4536
O=C1NN=C(c2ccccc2)CC1c1ccc(Cl)cc1Cl (stereo not given),3.2,3,10,2,-7,-18,3415
COC(=O)C1CCN(C(=O)COC(=O)c2cc([N+](=O)[O-])ccc2N2CCOCC2)CC1,-0.4,1,3,-3,/,-10,3700
CCOc1ccc(-n2c(SCC(=O)OC)nc3sc4c(c3c2=O)CCN(C)C4)cc1,4.1,17,-5,5,3,-12,3304
COc1ccccc1NS(=O)(=O)c1ccc(C(=O)NCC(c2ccco2)N(C)C)cc1 (stereo not given),0.5,3,5,0,/,-11,3995
O=C(O)c1cc([N+](=O)[O-])ccc1NCc1ccccc1,12,8,6,19,2,-14,3310
CCC1C2CC3C4N(C)c5ccccc5C45CC(C2C5O)N3C1O (stereo not given),7.4,20,5,-1,/,/,5261
Cc1ccnc(Sc2ccc([N+](=O)[O-])cc2[N+](=O)[O-])n1,15,3,9,22,-6,-14,21298*
COc1ccc(OCC(=O)Nc2ccc3c(c2)nc(CCN2CCC(C)CC2)n3C)cc1,2.4,9,5,3,-6,-15,4815
Cc1c(C(=O)c2ccc(F)cc2)c2ccccn2c1CCc1ccccn1,3.5,-14,-2,-1,5,-15,4619
O=S(=O)(O)CCN1CCOCC1,-0.4,0,/,/,-1,-21,4485
CC(=NNC(=O)c1nnn(-c2nonc2N)c1-c1ccc2c(c1)OCO2)c1ccccc1,5.8,9,-2,-4,/,/,/
COc1ccc(CN(C)C(=O)CSc2nnc(C3CC3)n2C2CC2)cc1,1.5,6,0,-4,/,-3,/
COc1cccc(NC(=O)[C@@H]2CCC(=O)N2C2OC(=O)c3ccccc32)c1 (stereo not given in full),-2.1,-20,/,/,-9,-16,5799
